AF4-AF9 inh = inhibitors of AF4 peptide binding to AF9, primary screen, biochemical, AlphaScreen, biotin-AF4 peptide, FLAG-AF9, single point | Protein AF-9 (Homo sapiens), P42568 | inhibition, % at 10 µM | hit rate 0.47% among 350,000 | AID 651704, 2012;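 active means every replicate reaching a set inhibition limit, whatever the replicate mean, cut at about 25% in these data; inconclusive means mean inhibition reaches that limit but some replicates miss it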;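 further: 0% = plate neutral control median and 100% = total signal loss; the record names both 10 and 1 µM as test concentration; the first replicate is given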
Target sequence (P42568 whole entry, looked up): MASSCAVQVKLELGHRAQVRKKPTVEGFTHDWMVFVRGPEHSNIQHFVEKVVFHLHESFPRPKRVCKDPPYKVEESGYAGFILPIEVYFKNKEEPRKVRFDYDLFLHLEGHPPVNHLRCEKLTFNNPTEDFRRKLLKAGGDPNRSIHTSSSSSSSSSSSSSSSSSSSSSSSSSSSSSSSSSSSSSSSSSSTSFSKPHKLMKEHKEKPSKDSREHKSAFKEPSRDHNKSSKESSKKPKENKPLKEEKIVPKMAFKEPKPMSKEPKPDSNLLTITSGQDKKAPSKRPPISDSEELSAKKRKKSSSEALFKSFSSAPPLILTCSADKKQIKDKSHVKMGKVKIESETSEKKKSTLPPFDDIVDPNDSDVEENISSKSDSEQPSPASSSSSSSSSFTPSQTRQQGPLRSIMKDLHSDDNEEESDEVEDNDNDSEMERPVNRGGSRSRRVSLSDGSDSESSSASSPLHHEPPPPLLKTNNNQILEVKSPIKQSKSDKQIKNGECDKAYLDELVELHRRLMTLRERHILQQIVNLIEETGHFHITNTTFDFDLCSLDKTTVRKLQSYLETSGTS
Ecoli rRNA inh = reduced GFP signal of wild-type E. coli, primary screen, bacterial rRNA inhibitor project, GFP/RFP fluorescence, OD600, single point | hit rate 1.6% among 350,000 | E. coli WT GFP vs humanized-ribosome RFP mutants, 24 h; stronger effect = lower value; DMSO median 0, no signal -100 | AID 720706, 2013 | GFP signal change (wild-type ribosome), % (test concentration not listed);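 active means significant combined selectivity score with lowered wild-type GFP, culture density cut under 30%, mutant RFP and density less affected; inactive means any of these conditions unmet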; further: one replicate is shown; some compounds called inactive have numbers as strong as hits
T cruzi repl = inhibitors of intracellular T. cruzi growth, primary screen, luminescence, NIH3T3 host cells. AID 1885, 2009. hit rate 1.4% among 300,000. T. cruzi beta-gal in NIH3T3, 90 h. inhibition, % (concentration not given with the values);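 active means mean inhibition across valid replicates above about 55%, limit read from the data; inconclusive means mean below that limit but half or more replicates reach it; inactive means mean below it, under half of replicates reach it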;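 further: signal also drops with host cell toxicity which is not excluded here; 0% = plate median of DMSO wells and 100% = zero luminescence signal; higher percent means less beta-gal luminescence so fewer parasites; stock transfer was 50 nL into about 50 µL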
Vif A3G = inhibitors of Vif binding to APOBEC3G peptide, primary screen, biochemical, TR-FRET, GST-Vif 1-94, biotin-A3G peptide, dose response retest (AID 1117319); Virion infectivity factor (Human immunodeficiency virus type 1 group M subtype B (isolate …; TR-FRET GST-Vif / biotin-A3G peptide binding; higher % means a stronger effect; test concentration not given here; strong numbers were not always called active; inhibition, %; hits with a dose series show IC50 in µM; hit rate 0.57% among 260,000;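 active means above the screen mean plus three standard deviations and confirmed in dose response; inconclusive means results disagree or hit not tested in dose response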;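 further: Vif residues 1-94 fused to GST binding biotinylated APOBEC3G peptide 110-148; 0% = full assay without inhibitor and 100% = GST in place of GST-Vif; retest series ran down from 100 µM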
RanGTP-Impb inh = inhibitors of RanGTP-importin-beta interaction, primary screen, biochemical, FRET, CFP-Ran, YFP-importin-beta, homogeneous | Ran GTPase (GTP-bound) - importin-beta complex | cell-free CFP-Ran/YFP-importin-beta FRET ratio | inhibition, % (test concentration not listed) | hit rate 1.1% among 300,000 | AID 2216, 2009;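 active means most replicates above 15%; inconclusive means exactly half above 15%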;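 further: 0% = DMSO wells and 100% = Ran loaded with GDP instead of GTP; wells of about 40 µL received 100 nL stock; the first replicate is given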
Calb FLC = C. albicans growth inhibition with fluconazole, primary screen, CaCi-2 strain, Alamar Blue fluorescence; C. albicans CaCi-2 (fluconazole-resistant clinical isolate) + fluconazole, 48 h; growth inhibition, % (concentration not given with the values); hit rate 0.57% among 300,000; AID 1979, 2009;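 active means most replicates above 75%; inconclusive means exactly half above 75%; inactive means most below 75%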;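 further: all wells also contain fluconazole at 8 µg/ml as a sub-toxic cotreatment; 0% = median of DMSO wells and 100% = median of geldanamycin control wells; wells of about 8 µL received 7.5 nL stock; the first replicate is given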
Beta apoptosis = inhibitors of cytokine-induced beta cell apoptosis, primary screen, luminescence; protection from apoptosis, % (no concentration beside the values); INS-1E cytokine-induced death, ATP luminescence, 48 h; percent of positive-control rescue, neutral wells zero; hit rate 0.8% among 300,000;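 active means all replicates at 75% or more, or half of them and the mean; inconclusive means half reach 75% but not the mean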;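 further: 0% = cytokine-treated negative control wells and 100% = positive control rescue; higher means more ATP so stronger rescue from cytokine killing; wells of about 40 µL received 100 nL stock; the first replicate is given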
Bfl-1 A1 inh = caspase 3/7 activation in MEF A1-2A-BIM cells, primary screen, A1 inhibitor project, cell-based, luminescence, HTS. hit rate 0.066% among 330,000. Caspase-Glo 3/7 luminescence, 3 h; percent of clofoctol response, vehicle zero. caspase activation, % (concentration not given with the values);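 active means over half of replicate activation scores above 10%, or exactly half above 10 with the replicate mean above 10; inconclusive means replicate mean below 10 yet half the replicates above 10; inactive means over half of replicates below 10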;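 further: wells of about 30 µL received 50 nL stock; many hits fall short of the cut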
Ecoli rRNA inh OD600 = recorded beside Ecoli rRNA inh, whose call it bears; OD600 change, %; measured here: OD600 growth;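 optical density of the mix in the first replicate; 0 = DMSO median and -100 = no signal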
Ecoli rRNA inh RFP = second read-out of Ecoli rRNA inh, no call of its own (marks repeat the call); RFP signal change, %; measured here: RFP humanized mutant strains;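 first replicate; 0 = DMSO median and -100 = no signal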
Numbers without * were called inactive; ? = inconclusive; · = no result given. Not all compounds are listed (hit frequency here may not be typical).

no.	Compound	AF4-AF9 inh	Ecoli rRNA inh	Ecoli rRNA inh OD600	Ecoli rRNA inh RFP	T cruzi repl	Vif A3G	RanGTP-Impb inh	Calb FLC	Beta apoptosis	Bfl-1 A1 inh
1	Cc1cccc(NC(=S)NN(Cc2ccccc2)c2ccccc2)c1C	·	·	·	·	2	-6%	?	4	2	0.2
2	Cc1ccc(C(=O)N2CCN(c3ccc(C(F)(F)F)cn3)CC2)cc1	·	·	·	·	-5	-7%	?	7	0	0.1
3	COc1ccc(OCC(=O)N2CCN(C(=O)Cc3ccccc3)CC2)cc1	·	·	·	·	-6	7%	-0.3	?	-7	-0.1
4	COC(=O)c1sc(-c2ccccc2)cc1NC(=O)c1ccccc1	4.4	6	14	13	4	·	-1.0	-5	-1	0.6
5	O=c1cc(-c2cccnc2)oc2c1ccc1ccccc12	-1.1	-4	-5	-3.9	27	-12%	-2.4	6	·	2.6
6	Cc1cccc(C)c1NC(=S)N1CCOCC1	-1.5	14	-6	-1.1	-2	2%	-4.3	-1	-14	1.2
7	CCOc1ccc(-c2cn(-c3ccc(OC)cc3)c(SC)n2)cc1	·	·	·	·	-15	4%	5.2	5	12	-1.9
8	Cc1ccc(-c2nnn(CC(=O)N(CC(=O)NC(C)C)c3cnc4ccccc4c3)n2)o1	-3.9	9	5	-0.9	2	12%	1.2	2	·	-0.2
9	Cc1nc2c([nH]c3ccccc32)c(=O)n1N	-0.6	6	5	1.9	-24	-4%	2.9	13	-1	-0.9
10	Cc1ccccc1-n1c(N)cc(=O)[nH]c1=S	·	·	·	·	0	11%	-0.1	3	-3	0.1
11	COCc1cc(C)nc(SCC(=O)NCC2CCCO2)c1C#N (stereo unspecified)	-8.0	4	7	-1.8	10	·	-0.8	-6	-10	0.2
12	COc1ccccc1CNC(=O)C(CC(C)C)NS(=O)(=O)c1ccc2c(c1)oc(=O)n2C (stereo unspecified)	-10	6	12	0.2	11	1%	0.3	-4	-12	0.6

Filtered by structure, the compounds so far containing an aryl thioether with sulfur outside any ring (2)
no.	Compound	AF4-AF9 inh	Ecoli rRNA inh	Ecoli rRNA inh OD600	Ecoli rRNA inh RFP	T cruzi repl	Vif A3G	RanGTP-Impb inh	Calb FLC	Beta apoptosis	Bfl-1 A1 inh
7	CCOc1ccc(-c2cn(-c3ccc(OC)cc3)c(SC)n2)cc1	·	·	·	·	-15	4%	5.2	5	12	-1.9
11	COCc1cc(C)nc(SCC(=O)NCC2CCCO2)c1C#N (stereo unspecified)	-8.0	4	7	-1.8	10	·	-0.8	-6	-10	0.2

(continued)
no.	Compound	AF4-AF9 inh	Ecoli rRNA inh	Ecoli rRNA inh OD600	Ecoli rRNA inh RFP	T cruzi repl	Vif A3G	RanGTP-Impb inh	Calb FLC	Beta apoptosis	Bfl-1 A1 inh
13	COc1ccc(CC2SC(N)=NC2=O)cc1 (stereo unspecified)	-1.6	2	2	-0.9	-4	-6%	-2.8	2	1	-0.5
14	O=C(CCN1C(=O)c2ccccc2C1=O)NC(=S)Nc1ccccc1Cl	0.4	-19	-23	0.4	-5	·	-1.5	-8	-7	0.5
15	CCOC(=O)NN1C(=O)c2ccccc2NC1c1cccc(O)c1 (stereo unspecified)	-3.8	-5	11	27	-17	·	0.0	8	2	0.2
16	O=C(CCn1[nH]c(=O)c2ccccc2c1=O)N1CCOCC1	·	·	·	·	-22	1%	3.1	-4	-6	0.3
17	CCOC(=O)N1CCC(N(C(=O)Nc2cccc(OC)c2)C(C)CC)CC1 (stereo unspecified)	·	·	·	·	-6	1%	-2.3	-4	-3	-0.1
18	CCOC(=O)c1cnc2cc(F)c(F)cc2c1N1CCOCC1	-3.1	-1	3	1.2	-3	3%	4.8	-2	-4	0.2
19	Cc1ccc2nc(-c3cccc(S(=O)(=O)N4CC(C)OC(C)C4)c3)cn2c1 (stereo unspecified)	-1.8	-18	-12	40	19	·	2.2	5	2	-0.5
20	COc1c(C)cc(C(=O)C2CCCN(Cc3ccc(Oc4ncccn4)cc3)C2)cc1C (stereo unspecified)	1.8	4	0	3.1	33	-6%	-7.7	3	5	0.5
21	O=C(CNS(=O)(=O)c1ccc(Br)s1)N1CCN(c2ccc(F)cc2)CC1	2.6	·	·	·	-5	?	0.2	-6	4	-0.9
22	CC1CC(C)CN(C(=O)c2cc3c(=O)n4ccccc4nc3s2)C1 (stereo unspecified)	-1.4	-14	-9	2.2	6	-3%	-5.0	-1	0	1.0
23	CCc1ccccc1NC(=O)CCNS(=O)(=O)c1cc(Br)cnc1N	-1.1	5	0	-1.4	-17	9%	3.4	2	-2	-0.7
24	CCc1ccc(OCC(=O)Nc2ccc(S(=O)(=O)Nc3ccccn3)cc2)cc1	0.0	-2	-3	0.6	-11	·	-4.3	-2	-1	-0.8
25	COc1ccc(S(=O)(=O)CCC(=O)Nc2cc(C)ccc2OC)cc1	-4.0	-7	-4	-1.3	-5	13%	1.6	-4	-15	1.8
26	CCN1/C(=C(\O)c2ccccc2)C(=O)c2ccccc2S1(=O)=O	·	·	·	·	-14	55µM*	0.2	-9	-5	0.5
27	COc1ccc2oc(=O)c(C(=O)n3ccc(C)n3)cc2c1	·	·	·	·	-7	2%	-0.2	-17	-5	0.5
28	Clc1ccc(NCc2nnc3n2CCCCC3)cc1	·	·	·	·	?	-3%	2.7	3	-6	0.8
29	COc1ccc(C(=O)COC(=O)c2ccccc2C(=O)N(C)c2ccccc2)c(OC)c1	0.1	-12	-18	5.8	2	2%	4.9	19	5	0.5
30	CC(=O)Nc1cccc(NC(=O)CSc2n[nH]c(-c3ccccc3)n2)c1	-1.0	·	·	·	·	-2%	·	·	-5	0.3
31	Cn1c(=O)c2c(SCC(=O)Nc3ccccc3F)nc(C3CC3)nc2n(C)c1=O	-1.6	9	10	0.3	-14	·	-0.5	0	-2	-0.3
32	COc1ccc(C2CC(c3cccs3)=NN2C(=O)CSc2nc3ccccc3s2)cc1 (stereo unspecified)	·	·	·	·	33	-8%	6.4	-14	1	-1.0
33	Cc1ccc(-c2nnc(OCCN3CCOCC3)c3ccccc23)cc1	·	·	·	·	-1	21%	-1.5	4	-5	2.0
34	CSc1ccc(CN2CCC(Cc3ccccc3)CC2)cc1	7.1	-4	-10	-0.7	34	·	0.8	-29	-4	-0.7
35	COc1ccccc1C(=O)NC1CCSc2ccccc21 (stereo unspecified)	3.9	-19	-18	-2.6	5	-9%	-2.1	32	-7	-0.6
36	CC(=O)Nc1ccc(NC(=O)C(C)OC(=O)c2c(NC(C)=O)sc(C)c2C)cc1 (stereo unspecified)	-1.8	6	7	2.3	·	-9%	·	·	-4	-2.0
37	COc1cccc(OC)c1C(=O)OCC(=O)N(c1ccccc1)C1CCCCC1	-0.1	-36	-52	-4.2	·	10%	·	·	6	-0.9
38	COc1cccc(N(CC(=O)NCCN2CCOCC2)S(=O)(=O)c2ccccc2)c1	-0.7	12	8	1.7	2	-3%	1.3	-3	·	-0.8
39	COc1ccc(/C=N/NC(=O)c2nnn(-c3nonc3N)c2-c2cccs2)c(OC)c1	-6.6	4	4	2.2	-21	·	4.0	-10	-9	0.2
40	O=C(NCc1nc(-c2ccccc2)no1)c1ccc(Br)o1	·	·	·	·	0	7%	0.1	-18	-7	0.9
41	CN1CCN(c2cc(=O)n(Cc3ccc(F)cc3)c(=O)[nH]2)CC1	2.7	5	14	-4.4	0	12%	7.5	6	-11	-0.4
42	Cc1ccc(SCCNC(=S)Nc2cc(C)ccc2C)cc1	·	·	·	·	5	3%	0.6	-9	9	3.2
43	CCOc1ncccc1C(=O)N1CCN(C(=O)c2ccccc2)CC1	-11	-3	-2	-0.5	-9	9%	-0.3	6	1	0.7
44	CSc1ccc(C(=O)C2CCCN(C(=O)c3csc(C(C)=O)c3)C2)cc1 (stereo unspecified)	-0.2	7	7	1.0	15	-7%	6.6	-1	5	0.0
45	Cc1c(NC(=O)CN(c2ccccc2)S(=O)(=O)c2ccc(F)cc2)c(=O)n(-c2ccccc2)n1C	-1.6	3	-1	-1.4	-4	·	1.9	-6	2	0.0
46	CCOC(=O)C1(Cc2ccc(OC)cc2)CCN(C(=O)C2CC(=O)N(C3CC3)C2)CC1 (stereo unspecified)	3.5	6	2	-1.8	-11	-6%	?	10	-2	-0.6
47	O=C(NC1CC1)C1CCN(C2CCN(C(=O)Cc3ccc(F)cc3)CC2)CC1	0.9	13	0	-3.4	-11	24%	?	3	-6	-0.2
48	CS(=O)(=O)c1ccc2nc(NC(=O)CN3CCOCC3)sc2c1	-2.1	4	7	-1.7	-12	0%	1.0	1	-6	0.6

Entries by screen from the entries so far.
Compounds 38 to 47 in Ecoli rRNA inh RFP: 1.7, 2.2, ·, -4.4, ·, -0.5, 1.0, -1.4, -1.8, -3.4

More results
no.	Compound	AF4-AF9 inh	Ecoli rRNA inh	Ecoli rRNA inh OD600	Ecoli rRNA inh RFP	T cruzi repl	Vif A3G	RanGTP-Impb inh	Calb FLC	Beta apoptosis	Bfl-1 A1 inh
49	COC(=O)c1cc(=O)n(Cc2ccc(OC)c(OC)c2)c(=Nc2ccc(F)cc2)s1	15	-4	11	13	47	-2%	2.2	10	-15	0.2
50	CC1CCCN(S(=O)(=O)c2ccc(NC(=O)C3CC(=O)N(c4ccccc4)C3)cc2)C1 (stereo unspecified)	-0.6	22	11	9.2	29	·	3.4	-5	2	-0.3
51	COc1ccccc1NC(=S)NCc1ccccc1	1.1	1	1	-0.2	-9	·	0.4	-3	1	0.4
52	CC(=O)N1c2ccc(S(=O)(=O)NCCC(=O)Nc3cccc(Cl)c3)cc2CC1C (stereo unspecified)	-1.3	1	-3	-2.8	10	2%	3.3	0	·	1.2
53	c1cnn(-c2cc(N3CCOCC3)ncn2)c1	·	·	·	·	1	7%	0.7	38	-4	-0.1
54	CNc1nc(N/N=C/c2ccc([N+](=O)[O-])cc2)nc(Nc2ccccc2)n1	7.5	-40*	-6.9*	-3.3*	12	3%	-2.9	51	·	-1.3
55	CCCCOc1ccc(C(=O)N(Cc2ccco2)C2CCS(=O)(=O)C2)cc1 (stereo unspecified)	·	·	·	·	6	-1%	-0.9	5	-1	0.6
56	COc1ccc(CNC(=O)C2CCN(S(=O)(=O)c3ccc4c(c3)C(C)(C)C(=O)N4C)CC2)cc1	4.7	4	9	1.6	-4	·	6.7	-2	-1	0.5
57	COc1cccc(S(=O)(=O)NCc2ccc(C(=O)Nc3ccc(Cl)c(Cl)c3)cc2)c1	·	·	·	·	37	-4%	5.1	-5	23	-0.3

Screens from PubChem.
